Screening results from PubChem.
Menin MLL FP FL: qHTS Assay for Inhibitors Targeting the Menin-MLL Interaction in MLL Related Leukemias: Competition With Fluorescein Labeled MLL-derived Peptide; 290,000 tested, under 10 active; Fluorescence polarization, fluorescein-MLL peptide displacement from menin; FP activity change, % at 61.4 µM; inconclusive = falling polarisation curve, or a change in total fluorescence; inactive = total fluorescence flat and polarisation flat or rising; no compound was filed as active; the % refers to the polarisation; negative = inhibition;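 also: % of control where 0% means no effect; inhibitors lower the polarisation; unlabelled MLL peptide was the positive control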
gsp agonist: qHTS for Agonist of gsp, the Etiologic Mutation Responsible for Fibrous Dysplasia/McCune-Albright Syndrome: qHTS | gsp mutant cells, cAMP HTRF, 30 min; control for the full effect not named in the record | Potency, µM (titrated, usually from 76.9 µM), for the others: at the highest dose activation (cAMP increase), hits mostly activators | hit rate 0.13% among 340,000; active = well fitted activation curve with a large enough effect; inconclusive = small, poorly fitted or top-dose-only effect, or another doubt; inactive = no such curve, though single readings can be large or run the other way; cell line not stated here;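 also: phosphodiesterase inhibitor Ro 20-1724 added with compounds to block cAMP breakdown; potency is read from the fitted curve at half-maximal effect; nearly all actives have a fitted effect of over 60% in size; about a fifth of the inactives were tested at one dose only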
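Cells stably selected in G418 were plated at 2000/well, grown 16-24 hr, then given compounds in DMSO with the PDE inhibitor […] (300 uM solution added) for 30 min at 37C; cAMP was read by HTRF.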
gsp antagonist: qHTS for Antagonists of gsp, the Etiologic Mutation Responsible for Fibrous Dysplasia/McCune-Albright Syndrome: qHTS; hit rate 0.4% among 340,000; gsp-mutant cells, cAMP HTRF, 30 min; control for the full effect not named in the record; Potency, µM (series often up to 76.9 µM), for the others: top-dose activity change, negative = inhibition, most hits filed as inhibitors; AID 624288, 2012; active = falling curve of any shape with a large fitted effect; inconclusive = falling curve, mostly with a smaller effect; inactive = flat or rising curve; cell line not stated here;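 also: intracellular cAMP measured with PDE inhibitor Ro 20-1724 present during compound exposure; potency is read from the fitted curve at half-maximal effect; % is scaled to controls: 0 for no effect and ±100 for the full control effect; nearly all actives have a fitted effect of over 65% in size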
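HTRF cAMP read-out (cAMP-d2 plus anti-cAMP antibody-K in lysis buffer, 30 min RT). Before lysis, cells are exposed to compounds with […] for 30 min at 37C in DPBS containing Ca/Mg, BSA and Tween 20.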
Sfp inh: qHTS Assay for Inhibitors of Bacillus subtilis Sfp phosphopantetheinyl transferase (PPTase); 4'-phosphopantetheinyl transferase ffp (Bacillus subtilis), Q9F4F7; Biochemical Sfp PPTase activity, qHTS; Potency, µM, inactives show max response, negative = inhibition, hits mostly inhibitors; hit rate 3.5% among 310,000; AID 1490, 2009; active = well fitted inhibition curve with a large enough effect; inconclusive = small, poorly fitted or top-dose-only effect, or another doubt; inactive = no such curve, though single readings can be large or run the other way;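 also: the enzyme is Sfp with the accession as filed and its product quenches rhodamine fluorescence; potency is read from the fitted curve at half-maximal effect; 0% = enzyme reaction without inhibitor and -100% = no enzyme wells; top concentration of the series not given in the record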
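Step 1, compound plus 15 nM Sfp-PPTase, 15 min, room temperature. Step 2, add rhodamine-CoA (5 uM) and BHQ-2-YbbR (12.5 uM). Step 3, read 525/598 nm fluorescence at 0 and 30 min.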
D2 agonist: Beta-Arrestin HTS for Positive Allosteric Modulators of the Human D2 Dopamine Receptor: Agonists; D(2) dopamine receptor (Homo sapiens), P14416; DiscoveRx PathHunter D2 beta-arrestin, luminescence, 90 min; 100% = 57 uM dopamine signal; activation, % (no concentration beside the values); hit rate 0.084% among 360,000; in the data active = activation above about 40%; inconclusive = about 15% to 40%; inactive = below about 15%; also: compound concentration not given in the record; the text of the record calls up to 30% inactive
Target sequence (P14416 whole entry, looked up): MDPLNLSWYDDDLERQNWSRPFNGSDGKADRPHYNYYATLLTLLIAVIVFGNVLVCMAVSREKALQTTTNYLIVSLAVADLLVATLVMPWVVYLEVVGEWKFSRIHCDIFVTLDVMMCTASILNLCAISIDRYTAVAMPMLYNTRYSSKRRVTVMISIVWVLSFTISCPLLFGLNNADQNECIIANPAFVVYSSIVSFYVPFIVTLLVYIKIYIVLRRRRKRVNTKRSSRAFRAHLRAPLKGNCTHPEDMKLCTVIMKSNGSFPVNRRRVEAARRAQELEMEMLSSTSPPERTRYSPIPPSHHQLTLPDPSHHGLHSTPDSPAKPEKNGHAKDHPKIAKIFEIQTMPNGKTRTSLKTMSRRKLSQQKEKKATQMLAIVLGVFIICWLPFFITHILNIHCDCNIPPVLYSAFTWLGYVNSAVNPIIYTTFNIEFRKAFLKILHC
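Agonist mode: compounds alone added to overnight-plated D2 PathHunter cells for 90 min at 37 C, with 57 uM final dopamine (EC100) defining full response. Beta-arrestin recruitment detected by chemiluminescent reagent, read after 1 h at ambient temperature.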
PINK1 expr mod: A Quantitative High throughput Screen to Identify Chemical Modulators of PINK1 Expression. PINK1 immunofluorescence, high-content cytometry, 24 h. Potency, µM (doses to about 76.6 µM), without a hit: at the top dose activation (PINK1 increase), usual class: activators. hit rate 0.2% among 410,000. AID 624263, 2012; active = well fitted activation curve with a large enough effect; inconclusive = small, poorly fitted or top-dose-only effect; inactive = flat fitted curve, though single readings scatter; cell line not stated here;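 also: potency is read from the fitted curve at half-maximal effect; % of control where 0% means no effect; nearly all actives have a fitted effect of over 65% in size; a mitochondrial uncoupler was the plate control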
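PINK1 protein, normally rapidly degraded, was detected by immunofluorescence after 24 hour compound treatment of a stable cell line. Titration data (5 concentrations) came from laser-scanning cytometry, with CCCP-treated wells as controls.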
ClpP mod: qHTS Assay for Activators of ClpP | ATP-dependent Clp protease proteolytic subunit (Bacillus subtilis (strain 168)), P80244 | purified B. subtilis ClpP, FRET peptide cleavage, 20 min | Potency, µM (highest dose often 57.5 µM), for inactives: at the highest dose activity change, negative = active | hit rate 1.9% among 340,000 | AID 651965, 2013; active = well fitted falling curve with a large enough effect; inconclusive = small, poorly fitted or top-dose-only effect; inactive = no such curve, though single readings can be large or run the other way; also: potency is read from the fitted curve at half-maximal effect; the source files actives as falling curves though it sought activators and does not explain the sign; nearly all actives have a fitted effect of over 65% in size; many hits overshoot -100%
Target sequence (P80244 whole entry, looked up): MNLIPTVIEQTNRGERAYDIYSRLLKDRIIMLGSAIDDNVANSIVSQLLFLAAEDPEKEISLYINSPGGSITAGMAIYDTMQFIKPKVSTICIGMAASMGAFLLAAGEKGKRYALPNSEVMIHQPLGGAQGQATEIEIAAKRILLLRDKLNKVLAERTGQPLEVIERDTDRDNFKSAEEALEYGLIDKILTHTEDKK
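FRET quenching reversal measured ClpP activation: 10 microg/mL B. subtilis ClpP at pH 8 with the FRET-FV decapeptide, read at 430 nm after 320 nm excitation. The 20-min minus 0-min signal was scaled between DMSO/no-enzyme wells and ADEP (5.8 microM final).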
* marks the source's active call; other numbers are inactive results; ? = inconclusive; / = no result given; & = joins results of further samples; [ ] = another dose, or the depositor's remark.

SMILES	Menin MLL FP FL	gsp agonist	gsp antagonist	Sfp inh	D2 agonist	PINK1 expr mod	ClpP mod
CC(=O)N(C)C[C@H]1Oc2ncc(Br)cc2C(=O)N([C@H](C)CO)C[C@@H]1C	/	?	/	/	0.5	0.2%	1.1%
C=CCn1c(SCCN2CCCC2)nc2c([nH]c3ccccc32)c1=O	0.0	4.2%[15.4 µM]	27.5%	?	-4.3	2.7%	/
COC(=O)c1[nH]c2ccccc2c1NC(=O)CN1CCN(c2cccc(OC)c2)C(C)C1 (stereo unspecified)	7.2	-18.6%	1.9%	-4.3%	-4.1	-2.1%	?
Oc1ccccc1C1=Nc2ccccc2N=C(c2ccco2)C1	4.3	-5.2%	11.0%	-10.5%	0.6	11.8%[38.3 µM]	-1.3%
O=S(=O)(c1ccc(S(=O)(=O)N2CCC3(CC2)OCCO3)cc1)N1CCCC1	5.3	-3.7%[15.4 µM]	-2.6%	34.9%[activator]	-8.8	-0.5%	/
O=C(O)CCCC(=O)N1CCCC1	-6.8	7.6%[15.4 µM]	15.3%	10.6%	-5.4	1.9%	/
Cc1cc2c(cc(C(=O)OC(C(=O)NCc3ccco3)C(C)C)n2C)o1 (stereo unspecified)	3.7	0.8%	-9.3%	?	1.4	1.5%[38.3 µM]	-3.4%
CN(Cc1ccccc1)C(=O)c1ccc2sc([C@H]3C[C@H](O)[C@@H](CO)O3)nc2c1	/	/	/	/	-1.4	-0.2%	0.1%
COc1ccc(/C=C2\SC(=N)N(c3ccc(F)cc3)C2=O)cc1OC	4.7	-10.9%[15.4 µM]	-19.4%	6.6%	-3.0	1.2%	/
Cc1ccc(-c2cnc(NCc3cc4c(cc3[N+](=O)[O-])OCO4)n2C)cc1C	2.9	8.5%	10.2%	23.1%	-1.4	-0.4%	1.0%
N=c1oc2ccccc2cc1C(=O)NCc1ccccc1	15.1	-29.8%[15.4 µM]	4.7%	5.3%	-6.1	2.2%	0.2%
CCSc1nnc(Nc2ccccc2)s1	2.9	4.6%	-6.3%	-2.6%	1.6	-0.2%	-1.8%
COc1ccc2c(c1)C(SCC(=O)NCCc1ccccc1)CC(C)(C)O2 (stereo unspecified)	-0.7	-12.1%	-18.7%	-5.3%	0.2	-2.7%	-3.2%
COc1ccc2[nH]c(=O)c(CN(C)C(=O)c3cccs3)cc2c1	-0.2	7.0%[15.4 µM]	-0.2%	-2.1%	1.4	-1.7%	/
Nc1ccc(Cl)cc1C(=O)OCC(=O)NC1CCS(=O)(=O)C1 (stereo unspecified)	-6.8	0.4%[15.4 µM]	0.8%	5.6%	3.9	2.7%	/
CCOc1ccccc1CNc1ccc(N2CCOCC2)c(C(=O)O)c1	1.8	-28.9%	10.1%	8.0%	-1.9	-3.7%[38.3 µM]	-5.0%
CC1Oc2ccccc2N(CC(=O)N2CCCC2)C1=O (stereo unspecified)	2.4	-0.1%[15.4 µM]	11.0%	-1.1%	-2.3	-0.8%	-0.5%
OCC1(Cc2ccccc2Cl)CCN(C/C=C/c2ccccc2)CC1	5.4	22.4%	9.2%	3.7%	2.8	2.4%	-1.9%
COc1ccc2nc(SCC(=O)NC3CCCC3)c(C)cc2c1	-0.3	?	11.4%	13.8%	-5.0	3.0%	-10.0%
CS(=O)(=O)c1ccc2nc(NC(=O)CS(=O)(=O)Cc3ccccc3)sc2c1	5.0	-35.0%[inhibitor]	-17.2%	13.2%	-3.7	0.1%	-7.3%
O=C(CC1(C(F)(F)F)OCCO1)Nc1ccc2c(c1)OCO2	-0.4	-49.6%[inhibitor]	6.8%	5.4%	1.2	-1.9%[38.3 µM]	-0.4%
CCOC(=O)C1=C(C)NC2=C(C(=O)CCC2)C1c1ccc(O)c(OCC)c1 (stereo unspecified)	4.5	12.4%	4.7%	-25.1%	5.0	-0.6%	-4.2%
Cc1ccc2nc(N/N=C/c3ccccc3C#N)nc(-c3ccccc3)c2c1	-0.7	-25.0%	-9.9%	2.1%	-3.8	0.0%	-14.6%
Cc1ccc(OCC(=O)N2CCC(Cc3ccccc3)CC2)c([N+](=O)[O-])n1	/	10.3%	-2.2%	/	-3.9	0.8%	2.3%
Cc1ccc(N=Nc2c(N)nn(-c3ccccc3)c2N)cc1	2.4	-3.1%	20.1%	-11.7%	-2.8	4.9%	2.4%

Other compounds
SMILES	Menin MLL FP FL	gsp agonist	gsp antagonist	Sfp inh	D2 agonist	PINK1 expr mod	ClpP mod
CCCc1nnc(NC(=O)c2cc3ccccc3oc2=O)s1	-1.6	13.8%	-1.9%	-4.7%	-2.9	0.5%	-1.8%
Cc1ccc(S(=O)(=O)NC(=O)N(C)C2CCCCC2)cc1	3.3	11.1%[15.4 µM]	5.8%	22.4%	-7.6	-0.7%	/
Cc1ccc(CSc2nnc(NC(=O)C3COc4ccccc4O3)s2)cc1 (stereo unspecified)	-0.3	-4.2%	?	-0.1%	-0.5	1.7%	-0.2%
CCC(=O)Nc1nc(-c2ccccc2)nc(SC)c1C(C)=O	-2.9	7.9%	-2.2%	13.2%	-3.6	5.2%	-3.3%
Cc1cnc(Sc2ncccc2[N+](=O)[O-])nc1	/	17.4%	9.5%	/	-1.0	4.7%	-0.7%
Cn1c(CCNC(=O)c2ccco2)nc2cc(NC(=O)C3CCCCC3)ccc21	-0.2	25.7%	-4.0%	-3.4%	-3.2	2.5%	-0.1%
CCCN(CCC)Cc1c(C(=O)N/N=C/C(C)=C\c2ccco2)nnn1-c1nonc1N	-2.0	-18.9%	?	-16.3%	7.7	7.3%	/
CC1CCc2c(nc3ncnn3c2N2CC(C)OC(C)C2)C1 (stereo unspecified)	-1.8	22.6%	-9.3%	7.4%	-0.5	-1.4%	0.0%
CC1(C)CC(=O)C(C=Nc2ccccc2)=C(O)C1	-4.6	-50.1%	-4.7%	0.1%	-0.3	-4.9%	-20.1%
CCC(=O)Nc1ccc(NC(=O)c2ccco2)cc1	-0.2	-3.1%	6.3%	6.7%	0.6	-2.2%[38.3 µM]	-0.1%
C=CCn1c(=O)c2ccccc2n2c(SCC(=O)/C(C#N)=C(\C)N)nnc12	-1.1	-27.7%&-28.4%	-14.3%&-7.7%	11.8%	-4.7&-0.7	-0.5%	-2.5%
COc1ccc(S(=O)(=O)N2CCCCC2)cc1NC(=O)CCNC(=O)c1ccc(Br)cc1	/	-21.1%	4.1%	/	-3.4	3.4%	-0.1%
O=C(NC(Cc1ccccc1)C(=O)O)/C(=C\c1ccc(F)cc1)NC(=O)c1ccccc1 (stereo unspecified)	2.4	?	5.1%	14.0%	8.5	0.6%	-0.5%
COc1ccc(C(=O)N(CCc2ccccc2)Cc2ccccc2)cc1S(=O)(=O)N1CCOCC1	/	2.3%	-16.5%	/	-3.1	2.5%	0.5%
COc1ccccc1C(=O)NCC(=O)OCC(=O)c1ccc(Cl)s1	/	-16.4%[15.4 µM]	1.1%	/	-11.3	-0.2%	-0.3%
O=C(O/N=C1\CCS(=O)(=O)c2sccc21)C1CC1	-0.6	34.0%	3.1%	4.6%	-1.3	-1.8%	1.6%
NC(=O)C1(Nc2ccc(C(=O)O)cc2)CCCC1	/	-58.0%[inhibitor]	12.4%	/	-1.3	3.7%	11.2µM*
Cc1ccccc1S(=O)(=O)NC(=O)C1(C)CCN1C(=O)CCc1cccs1 (stereo unspecified)	/	/	/	/	2.6	1.8%	2.0%
C=Cc1cccc(NC(=O)c2ccc(NC(=O)c3ccco3)cc2)c1	1.6	29.2%	-37.2%	12.8%	0.4	1.0%	-0.6%
CCN1CCN(CCc2nc3cc(NC(=O)COc4ccc(Cl)cc4)ccc3n2C)CC1	-2.7	0.5%	-2.1%	-10.4%	3.2	1.5%	-3.7%
CN(C)c1ccc(/C=N/N(CCC(=O)NC(C)(C)C)C2=NS(=O)(=O)c3ccccc32)cc1	?	3.0%[15.4 µM]	-6.7%	0.7%	-3.1	7.1%	/
O=C(CCCl)Nc1cc(SCCO)cc([N+](=O)[O-])c1	-2.5	-3.7%	3.3%	15.8%	0.5	-5.5%[38.3 µM]	1.0%
Cc1cc(NC(=O)c2ccc(NC(=O)c3cccs3)cc2)no1	3.1	-78.4%[inhibitor]	?	-4.3%	-1.1	2.7%	1.9%
COc1ccc(C(=O)CCC(C)(C)[N+](=O)[O-])cc1OC	3.4	-0.1%[15.4 µM]	22.2%	15.3%	0.0	0.9%	-0.3%
COc1ccc(S(=O)(=O)Oc2ccc(C(=S)N3CCOCC3)cc2OC)cc1	0.9	5.9%[15.4 µM]	-2.3%	2.4%	-3.3	0.8%	-0.5%

Continuation.
SMILES	Menin MLL FP FL	gsp agonist	gsp antagonist	Sfp inh	D2 agonist	PINK1 expr mod	ClpP mod
CCC1=NN(C(=O)c2ccc(Cl)cc2)C(O)(c2ccccc2)C1 (stereo unspecified)	-3.2	-19.4%	-11.5%	8.8%	-0.8	29.2%	0.7%
COc1cc(C(=O)N/N=C/C2CC=CCC2)cc(OC)c1OC (stereo unspecified)	-2.2	-66.9%[inhibitor]	21.0%	-4.2%	0.6	?	2.7%
Cc1cccc2sc(N(CCN3CCOCC3)C(=O)CCS(=O)(=O)c3ccccc3)nc12	/	3.4%	?	/	-4.7	2.5%	1.2%
COc1ccc(NC(=S)NC(C)C(c2ccccc2)N2CCOCC2)cc1 (stereo unspecified)	-5.1	23.9%	0.4%	21.4%	3.9	-0.7%	/
CC(=O)OCC(OC(C)=O)C(OC(C)=O)C(OC(C)=O)C(=O)Nc1ccc(C)cc1 (stereo unspecified)	2.8	-5.8%	15.9%	7.2%	-1.5	-1.1%	-4.0%
CCOCCCNC(=O)C1(O)c2cc(Br)ccc2NC(=O)N1c1ccc(OCC)cc1 (stereo unspecified)	2.4	6.6%	1.4%	6.6%	0.6	-3.2%	0.3%
Cc1ccc(S(=O)(=O)N2CCC(C(=O)Nc3ccc(S(=O)(=O)N4CCCC4)cc3)CC2)cc1C	/	20.7%	0.7%	/	0.0	-4.5%	8.6%
O=C(COc1ccc2ccccc2c1Br)Nn1cnnc1	4.0	?	6.5%	9.4%	-1.3	2.3%[38.3 µM]	-2.1%
